MT1-MMP act inh – blockers of MT1-MMP proenzyme processing, primary screen, HT1080 RFP-PRO-GFP cells, GFP/RFP fluorescence; Matrix metalloproteinase-14 (Homo sapiens), P50281; GFP/RFP ratio fluorescence, overnight; percent of plate control window, DMSO zero; GFP/RFP ratio change, % at 20 µM; actives 0.061% (n = 360,000); AID 651647, 2012;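 active = GFP/RFP ratio change of at least 30% with cell ATP level not reduced by more than half and red fluorescence within 50% of control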; note: strong numbers were not always called active
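Material: RFP-PRO-GFP reporter HT1080 cells. Dosing: single-point 20 µM compound, 1% DMSO. Controls: DMSO and RFP-L50D-GFP cell wells. Timing: cells overnight before dosing, compound overnight, 37 °C, 5% CO2. Measure: GFP/RFP fluorescence ratio.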
Yeast UUG start – modulators of yeast start codon fidelity, primary screen, whole organism, S. cerevisiae, single point, plate reader. activity score, % at 18.7 µM. actives 0.13% (n = 350,000). AID 602363, 2012. S. cerevisiae UUG-firefly luciferase reporter, luminescence/redox ratio;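 active = replicate mean at a twofold rise or more, about +100% in these data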;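 note: firefly luciferase made from a UUG start codon reports start codon fidelity; reporter light over untreated wells divided by growth signal over untreated wells; some hits fall short of that in this replicate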
CSC inhib – cancer stem cell viability inhibitors, primary screen, luminescence; inhibition, % at 7.5 µM; actives 1.1% (n = 300,000); cancer stem cell-like cells viability;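 active = mean at 75% or more and at least half the replicates too; inconclusive = mean and replicates disagree; tested in HMLE shEcad cells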;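 note: 0% = median of negative and 100% = median of positive control wells; the first replicate is given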
eIF4H inh – human eIF4H binding inhibitors, primary screen, translation initiation inhibitor project, biochemical, uHTS, fluorescence polarization. Eukaryotic translation initiation factor 4H (Homo sapiens), Q15056. eIF4H fluorescence polarization binding assay. inhibition, % at 35 µM. actives 0.94% (n = 290,000). AID 2012, 2009;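 active = 50% or more with normal probe brightness, or confirmed in later tests; inconclusive = above 50% with abnormal brightness, or retests that disagree; inactive = below 50% or failed in later tests; about a fifth of its hits are not listed in these tables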;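 note: calls also rest on retests at 20 µM and on dose response follow-up; 0% = protein and probe with vehicle and 100% = probe without protein; strong numbers were not always called active; many hits fall short of the cut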
Env fusion inh – inhibitors of HIV-1 Env-driven cell-cell fusion, primary screen, HeLa-JRFL effector, CEM21 target cells, luciferase | inhibition, % at 12.3 µM | actives 1.1% (n = 360,000) | AID 651610, 2012;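 active = mean replicate inhibition score of at least 50 and every replicate individually at or above 50; inconclusive = only one of the two criteria met; inactive = mean below 50 and not all replicates reaching 50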;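 note: 0% = plate neutral controls and 100% = maraviroc near 300 nM; one replicate is shown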
PABP polyA inh – PABP poly(A) RNA binding inhibitors, primary screen, biochemical, fluorescence polarization, uHTS | Polyadenylate-binding protein 1 (Homo sapiens), P11940 | inhibition, % at 35 µM | actives 1% (n = 290,000) | AID 2014, 2009;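 active = 50% or more with normal probe brightness, or confirmed in later tests; inconclusive = above 50% with abnormal brightness, or retests that disagree; inactive = below 50% or failed in later tests; about a fifth of its hits are not listed in these tables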;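 note: calls also rest on retests at 20 µM and on dose response follow-up; controls were probe without protein and protein plus probe with vehicle; some compounds called inactive have numbers as strong as hits; many hits fall short of the cut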
Rce1 inhib – yeast Rce1p protease inhibitors, primary screen, biochemical, fluorescence, cell-free homogeneous; calls only; actives 0.27% (n = 290,000); CAAX prenyl protease 2 (Saccharomyces cerevisiae (strain ATCC 204508 / S288c)), Q03530; yeast membranes, quenched prenylated peptide cleavage fluorescence;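 active = fall in fluorescence gain of 50% or more versus controls, with final raw signal at or below 3038400; inconclusive = same 50% fall but final raw signal above 3038400; inactive = fall in fluorescence gain under 50%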;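 note: plate controls were neutral control wells for no effect and wells lacking membranes for full effect; tested at 10 µM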
Target sequence (Q03530 whole entry, looked up): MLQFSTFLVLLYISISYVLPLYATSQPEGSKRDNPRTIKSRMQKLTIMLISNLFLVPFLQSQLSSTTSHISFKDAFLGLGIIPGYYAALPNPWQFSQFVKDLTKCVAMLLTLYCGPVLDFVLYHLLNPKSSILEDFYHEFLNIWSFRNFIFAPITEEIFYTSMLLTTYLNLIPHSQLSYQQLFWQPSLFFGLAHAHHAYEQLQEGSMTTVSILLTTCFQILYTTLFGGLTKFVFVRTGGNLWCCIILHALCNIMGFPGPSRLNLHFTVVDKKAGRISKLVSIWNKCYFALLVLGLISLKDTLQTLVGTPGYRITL
MT1-MMP act inh RFP – also measured in MT1-MMP act inh; calls as there; RFP signal change, %; measured here: RFP expression control read;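 0 = vehicle wells; hits needed this value within 50% of zero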
* hit, by the source's call.

Screening Cc1nc2ccc(NC(=O)CSc3nnc(C)s3)cc2[nH]1 returned MT1-MMP act inh -3.5, CSC inhib 1.5, eIF4H inh -1.4, Env fusion inh 10.5, PABP polyA inh 4.8, Rce1 inhib inactive and MT1-MMP act inh RFP -0.3.
Screening O=C(NCCc1c[nH]c2ccc(Cl)cc12)c1cccnc1 returned MT1-MMP act inh 5.2, Yeast UUG start -12.8, CSC inhib 18.9, eIF4H inh -2.0, PABP polyA inh -3.7, Rce1 inhib inactive and MT1-MMP act inh RFP -0.8.
`COc1cc(-c2cnc3c(NC=O)cc(-c4ccccc4)cn23)cc(OC)c1OC` gave MT1-MMP act inh 6.2, Yeast UUG start -0.8, Env fusion inh -123.0 and MT1-MMP act inh RFP -5.9.
Cc1cccc(Sc2ccc([N+](=O)[O-])cc2[N+](=O)[O-])n1 was read as MT1-MMP act inh -2.3, CSC inhib 30.4, eIF4H inh 5.1, Env fusion inh -8.3, PABP polyA inh -4.6, Rce1 inhib inactive and MT1-MMP act inh RFP -2.0.
Screening COc1ccc(NC(=O)N2CCC(c3nc4ccccc4[nH]3)CC2)cc1 returned MT1-MMP act inh 2.0, CSC inhib -8.8, eIF4H inh -34.2, Env fusion inh -2.2, PABP polyA inh -2.5, Rce1 inhib inactive and MT1-MMP act inh RFP 0.8.
For O=C(COC(=O)C1CC2CCCC(C1)C2=O)NNC(=O)c1ccccc1F (configuration not stated) the results were MT1-MMP act inh 3.0, Yeast UUG start -15.5, CSC inhib -1.6, Env fusion inh -6.9, Rce1 inhib inactive and MT1-MMP act inh RFP 5.4.
Screening COc1ccc2c(c1)C=CC1(O2)N(CCO)c2ccccc2C1(C)C (configuration not stated) returned MT1-MMP act inh 52.0*, Yeast UUG start -14.8, CSC inhib 37.9, eIF4H inh inconclusive, PABP polyA inh -15.8, Rce1 inhib inactive and MT1-MMP act inh RFP 48.6*.
`Cc1c(-c2nnc(SCC(=O)O)n2-c2ccccc2Br)nnn1-c1ccccc1` gave MT1-MMP act inh 3.5, CSC inhib 8.3, eIF4H inh 2.8, Env fusion inh 11.0, PABP polyA inh 3.6, Rce1 inhib inactive and MT1-MMP act inh RFP 9.3.
CC(=O)NCCC(=O)Nc1nc(-c2cccs2)c(-c2cccs2)s1 was read as MT1-MMP act inh 5.2, eIF4H inh -7.7, Env fusion inh -23.4, PABP polyA inh -1.8, Rce1 inhib inactive and MT1-MMP act inh RFP 2.1.
`COC(=O)c1ccc(NC(=O)C[n+]2ccccc2C)cc1` gave MT1-MMP act inh 0.3, Yeast UUG start -16.5, CSC inhib -12.6, eIF4H inh -7.4, Env fusion inh -14.3, PABP polyA inh -4.4, Rce1 inhib inactive and MT1-MMP act inh RFP -0.1.
For Cc1ccc(C)c2[nH]c(=O)c(CN(CC3CCCO3)C(=S)NCc3ccco3)cc12 (configuration not stated) the results were MT1-MMP act inh -3.9, CSC inhib -9.1, eIF4H inh -0.5, Env fusion inh -4.9, PABP polyA inh 1.8, Rce1 inhib inactive and MT1-MMP act inh RFP -3.3.
CCOC(=O)c1c(C)[nH]c(C(=O)N2CCCC(C(=O)c3cccc(OC)c3)C2)c1C (configuration not stated) was read as MT1-MMP act inh -6.3, CSC inhib -3.9, eIF4H inh 8.5, Env fusion inh 6.1, PABP polyA inh -2.1, Rce1 inhib inactive and MT1-MMP act inh RFP -6.2.
Screening c1ccc(Cn2c[n+](Cc3ccccc3)cn2)cc1 returned MT1-MMP act inh 3.8, CSC inhib 8.3, eIF4H inh -11.4, Env fusion inh 0.4, PABP polyA inh 7.7, Rce1 inhib inactive and MT1-MMP act inh RFP 3.0.
COc1ccccc1-c1cc(C(=O)Nc2c(F)cc(F)cc2Br)no1 was read as MT1-MMP act inh -3.2, Yeast UUG start -15.2, CSC inhib 7.9, eIF4H inh 6.3, Env fusion inh 28.9, PABP polyA inh 6.1, Rce1 inhib inactive and MT1-MMP act inh RFP -2.9.
Screening COc1ccc(OCCCC(=O)Nc2nccs2)cc1 returned MT1-MMP act inh 3.3, Yeast UUG start -10.8, CSC inhib -1.8, eIF4H inh -3.9, Env fusion inh 2.4, PABP polyA inh 1.9, Rce1 inhib inactive and MT1-MMP act inh RFP -1.1.
For O=C(COc1ccc2c(-c3ccccc3)cc(=O)oc2c1)NCCCn1ccnc1 the results were MT1-MMP act inh 1.8, Yeast UUG start 27.0, CSC inhib 4.0, eIF4H inh -5.3, PABP polyA inh -16.3, Rce1 inhib inactive and MT1-MMP act inh RFP -3.7.
For O=S(=O)(c1ccc2ccccc2c1)N1CCN(CCO)CC1 the results were MT1-MMP act inh 0.2, Yeast UUG start -17.4, CSC inhib -15.3, eIF4H inh -1.9, Env fusion inh -0.7, PABP polyA inh 1.0, Rce1 inhib inactive and MT1-MMP act inh RFP 3.0.
`COP(=O)(OC)C(Nc1ccc(C)cc1)c1ccc(Br)cc1` (configuration not stated) gave MT1-MMP act inh -1.2, Yeast UUG start -13.6, Env fusion inh -12.0 and MT1-MMP act inh RFP -1.6.
For O=C1c2ccc([N+](=O)[O-])cc2C(=O)N1Cc1cccnc1 the results were MT1-MMP act inh -1.7, Yeast UUG start -6.7, CSC inhib -5.3, eIF4H inh -8.1, Env fusion inh 4.2, PABP polyA inh 12.4, Rce1 inhib inactive and MT1-MMP act inh RFP 1.0.
For CC(=O)Nc1ccc(NC(=O)C(C)OC(=O)C2(c3ccc(F)cc3)CCCC2)cc1 (configuration not stated) the results were MT1-MMP act inh 0.6, Yeast UUG start 5.5, CSC inhib -13.2, eIF4H inh 5.6, Env fusion inh -9.4, PABP polyA inh 3.9, Rce1 inhib inactive and MT1-MMP act inh RFP -11.1.
Screening CCCn1c(SCC(=O)N2c3ccccc3CCc3ccccc32)nc2c1c(=O)n(C)c(=O)n2C returned MT1-MMP act inh -8.0, Yeast UUG start -17.0, CSC inhib -5.0, eIF4H inh -8.4, Env fusion inh 14.1, PABP polyA inh 14.2 and MT1-MMP act inh RFP -8.4.
Screening O=C(/C=C/Nc1ccc(F)c(Cl)c1)c1ccco1 returned MT1-MMP act inh -2.4, Yeast UUG start -7.3, CSC inhib 12.9, eIF4H inh 2.0, PABP polyA inh 11.0, Rce1 inhib inactive and MT1-MMP act inh RFP 1.4.
`C=CCOc1ccc(Br)cc1CNCCCN1CCOCC1` gave MT1-MMP act inh 5.4, Yeast UUG start -7.2, CSC inhib -0.6, eIF4H inh -2.6, Env fusion inh -1.3, PABP polyA inh 6.8, Rce1 inhib inactive and MT1-MMP act inh RFP 4.7.
Screening CC1=C(C(=O)OCc2ccccc2)C(c2ccccc2-c2ccccc2)NC(=O)N1CCCCCC(=O)O (configuration not stated) returned MT1-MMP act inh -0.8, Yeast UUG start -7.2, CSC inhib -9.7, eIF4H inh -4.1, Env fusion inh -28.9, PABP polyA inh -7.5, Rce1 inhib inactive and MT1-MMP act inh RFP 0.2.
Screening Cc1ccc(S(=O)(=O)N2CCOCC2)cc1C(=O)OC(C)C(=O)c1ccccc1 (configuration not stated) returned MT1-MMP act inh -1.5, Yeast UUG start 8.2, CSC inhib -6.7, Env fusion inh -8.5, Rce1 inhib inactive and MT1-MMP act inh RFP -6.4.
CCOc1cc(NC(=S)NCCCOC)c(OCC)cc1NC(=O)c1ccco1 was read as MT1-MMP act inh 5.2, CSC inhib -10.8, eIF4H inh 0.6, Env fusion inh -9.6, PABP polyA inh 12.5, Rce1 inhib inactive and MT1-MMP act inh RFP 4.5.
`CCOc1ccc(NC(=O)COC(=O)C2(C)CC2(Cl)Cl)c([N+](=O)[O-])c1` (configuration not stated) gave MT1-MMP act inh 6.2, CSC inhib -3.9, eIF4H inh -6.3, Env fusion inh -0.3, PABP polyA inh -4.5, Rce1 inhib inactive and MT1-MMP act inh RFP -3.9.
Screening C/C(=N\NC(=S)NCc1ccccc1)c1ccc2ccccc2c1 returned MT1-MMP act inh 4.3, CSC inhib 44.2, eIF4H inh 1.8, Env fusion inh 29.0, PABP polyA inh 3.0, Rce1 inhib inactive and MT1-MMP act inh RFP -1.3.
`Nc1c(C(=O)CCC(=O)O)oc2ccc(Cl)cc12` gave MT1-MMP act inh 3.4, Yeast UUG start -10.9, CSC inhib -3.4, eIF4H inh 0.6, Env fusion inh -19.7, PABP polyA inh -2.8, Rce1 inhib inactive and MT1-MMP act inh RFP 0.6.
`Cc1ccc(C2C3=C(CC(C)(C)CC3=O)OC3=C2C(=O)CC(C)(C)C3)cc1` gave MT1-MMP act inh -0.4, CSC inhib -1.4, eIF4H inh -3.5, Env fusion inh 2.5, PABP polyA inh -8.2, Rce1 inhib inactive and MT1-MMP act inh RFP -0.1.
COC(=O)c1cccc(NC(=O)Cn2cnc3c2c(=O)n(C)c(=O)n3C)c1 was read as MT1-MMP act inh 8.1, Yeast UUG start -16.3, CSC inhib -15.6, eIF4H inh 4.9, Env fusion inh 2.8, PABP polyA inh 2.2, Rce1 inhib inactive and MT1-MMP act inh RFP -3.9.
`O=C1NC(=O)C(=C2CCOC2=O)N1` gave MT1-MMP act inh 2.6, Yeast UUG start -16.3, Env fusion inh 1.5 and MT1-MMP act inh RFP 4.0.
Cc1ccc(C(=O)NCCNC(=O)c2ccccc2)cc1 was read as MT1-MMP act inh 1.3, Yeast UUG start 1.0, CSC inhib -14.9, eIF4H inh 5.2, Env fusion inh -1.7, PABP polyA inh -1.3, Rce1 inhib inactive and MT1-MMP act inh RFP 5.2.
Screening O=C(CSc1nnc(CNC(=O)C23CC4CC(CC(C4)C2)C3)n1-c1ccccc1)Nc1ccccc1 returned MT1-MMP act inh -2.6, Yeast UUG start -14.7, CSC inhib 23.0, eIF4H inh -14.9, Env fusion inh 20.1, PABP polyA inh -19.8, Rce1 inhib inactive and MT1-MMP act inh RFP -4.6.
For COc1ccc(C(N)=O)cc1N the results were MT1-MMP act inh -4.7, Yeast UUG start -10.9, CSC inhib -9.8, eIF4H inh -2.5, Env fusion inh -73.9, PABP polyA inh -6.7, Rce1 inhib inactive and MT1-MMP act inh RFP -3.6.
For COc1ccccc1Nc1nc(N)nc(CN2CCC(C)CC2)n1 the results were MT1-MMP act inh 2.0, Yeast UUG start -21.2, CSC inhib -10.4, eIF4H inh -0.4, Env fusion inh -4.9, PABP polyA inh 0.0, Rce1 inhib inactive and MT1-MMP act inh RFP 3.1.
For CCCc1nnc(NC(=O)CCC(=O)N2CCN(Cc3cc(Cl)ccc3OC)CC2)s1 the results were MT1-MMP act inh 2.0, Yeast UUG start -17.5, CSC inhib -10.6, eIF4H inh -12.7, Env fusion inh 9.0, PABP polyA inh -9.5, Rce1 inhib inactive and MT1-MMP act inh RFP -0.1.
COc1cc([N+](=O)[O-])cc2sc(NC(=O)C3CC3)nc12 was read as MT1-MMP act inh 0.2, CSC inhib 12.2, eIF4H inh -1.5, Env fusion inh -5.9, PABP polyA inh 3.8, Rce1 inhib inactive and MT1-MMP act inh RFP -9.9.

Assay outcomes: PubChem BioAssay, several laboratories

A portion of the library, so the mix of outcomes need not match the whole.
